# NPYLR7 agonist: mosquito NPYLR7 agonism | activation, % at 10 µM | HEK293T NPYLR7/Galpha15, GCaMP6s calcium fluorescence | 270,000 tested, 0.15% active; in the data active = activation above about 40%;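 also: 0% = vehicle and 100% = reference agonist at the receptor; some compounds past the cut are filed as inactive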
# NPYLR7 agonist max-min: further read-out of NPYLR7 agonist, marked with its call; activation, %; measured here: Max-Min RFU normalised activation; some inactives read as strong as hits;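 span of the calcium signal over five minutes; 0% = vehicle and 100% = native peptide agonist; compound fluorescence can raise it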
# Active calls of the source: *. A portion of the library (hit frequency here may not be typical).
# The opening six entries, ahead of the listing:
no.	structure	NPYLR7 agonist	NPYLR7 agonist max-min
1	CCN(CC)C(=O)CN1CCC2(CC1)CC(=O)c1cc(Br)ccc1O2	-1	-4
2	CCc1nnc(NC(=O)c2sc(CC(C)C)nc2C)s1	0	-2
3	Cc1nnsc1CN(C)CCC(=O)Nc1nc2ccccc2s1	-9	-9
4	CCCNC(=O)Cn1cc(OC)c(=O)cc1CN1CCC(C)CC1	-1	0
5	CC(C)CNC(=O)CS(=O)Cc1sccc1Br (stereo not drawn)	5	6
6	Cc1c(C(=O)N2C[C@@H]3[C@H](C2)[C@H]2CC[C@@H]3O2)sc2ccccc12	-1	-3

# This part in full, from the start:
no.	structure	NPYLR7 agonist	NPYLR7 agonist max-min
1	CCN(CC)C(=O)CN1CCC2(CC1)CC(=O)c1cc(Br)ccc1O2	-1	-4
2	CCc1nnc(NC(=O)c2sc(CC(C)C)nc2C)s1	0	-2
3	Cc1nnsc1CN(C)CCC(=O)Nc1nc2ccccc2s1	-9	-9
4	CCCNC(=O)Cn1cc(OC)c(=O)cc1CN1CCC(C)CC1	-1	0
5	CC(C)CNC(=O)CS(=O)Cc1sccc1Br (stereo not drawn)	5	6
6	Cc1c(C(=O)N2C[C@@H]3[C@H](C2)[C@H]2CC[C@@H]3O2)sc2ccccc12	-1	-3
7	O=C(CN1C(=O)C2C3C=CC(C3)C2C1=O)NCCC1=CCCCC1 (stereo not drawn)	12	9
8	COc1cc2c(cc1OC)CN(C1CCCN(Cc3nc(C(C)C)cs3)C1)CC2 (stereo not drawn)	5	-3
9	Cc1cccc(C(=O)n2sc(=O)c3ccccc32)c1	-3	-6
10	CCCCc1cnc2c(c1SCc1ccccc1C)c(=O)n(C)c(=O)n2C	5	10
11	COc1cccc(-c2nnc(SCc3ccc(C(=O)O)cc3)n2-c2ccccc2C)c1	1	-4
12	O=C(c1ccc([N+](=O)[O-])o1)N1CCN(c2cccc(Cl)c2)CC1	0	-5
13	CC(C)C(=O)N1CCC(C(=O)Nc2ccc(Cl)cc2F)CC1	-4	-3
14	CN(Cc1ccccc1)C(=O)Cn1nnc(-c2ccccc2)c1COc1ccc2ccccc2c1	7	2
15	CCOC(=O)c1nn(-c2ccccc2)c(=O)cc1OS(=O)(=O)c1c(C)cc(C)cc1C	-1	5
16	O=C(O)CCc1nc(-c2ccsc2)no1	9	14
17	CC(C)c1csc(CN2CCCC(CNC(=O)C3(c4ccc(Cl)cc4)CC3)C2)n1 (stereo not drawn)	18	8
18	CN(C)C(=O)c1ccc(N2CCC(NCCC3COc4ccccc4O3)CC2)cc1 (stereo not drawn)	-6	-10
19	O=C1c2ccccc2C(=O)c2cc(S(=O)(=O)N(CCO)Cc3ccccc3)ccc21	3	1
20	CCCCNC(=O)C1(C)CCCCN1C(=O)c1ccc(C#N)cc1 (stereo not drawn)	-6	-6
21	COCCn1c(C)cn2c3c(=O)n(Cc4ccccc4)c(=O)n(C)c3nc12	13	7
22	CCc1nc2n(n1)C(=O)C(C(c1ccc(F)cc1)N1CCC3(CC1)OCCO3)S2 (stereo not drawn)	-4	-8
23	Cc1nc(C)c(C(=O)Nc2nc(-c3ccco3)c(-c3ccco3)s2)s1	2	8
24	COc1ccccc1/C=C/C=C1\N=C(c2ccc([N+](=O)[O-])cc2Cl)OC1=O	-2	-5
25	CN(C)c1ccc(/C=C2\C(=O)Nc3ccccc32)cc1	0	28
26	c1coc(-c2nnc(CN(C3CC3)C3Cc4ccccc4C3)o2)c1	4	8
27	C=C(Br)CNC(C)(C)C(=O)OC	-2	-6
28	Nc1ccnc(N2CCC(CO)(Cc3ccccc3Cl)CC2)n1	31	22
29	CS(=O)(=O)Oc1ccccc1CN(Cc1ccc(F)cc1)C(=O)C1CCC1	8	18
30	CCOC(=O)c1sc(NC(=O)CCl)cc1C	-3	-2
31	Cc1cc(C)n(CCCNS(=O)(=O)N(C)Cc2ccccc2)n1	6	6
32	COCCN=c1scc(-c2cc(Cl)ccc2Cl)n1N=Cc1cc(OC)c(O)c(OC)c1	-4	-7
33	Cc1ccc(NC(=O)CSc2cn(CC(=O)N3CCCCC3)c3ccccc23)cc1Cl	-4	-9
34	COc1ccc2cc(C3CN(Cc4c(C)[nH]c(=O)[nH]c4=O)CCO3)ccc2c1 (stereo not drawn)	-4	-5
35	CN1C(=O)[C@H](OC(N)=O)[C@@H](C(=O)Nc2ccccc2)C12CCN(C(=O)c1ccc(F)cc1)CC2	16	14
36	CCCNC(=O)c1cc(NC(=O)Nc2cccc(CC)c2)ccc1N1CCCC1	19	22
37	CCCCNC(=O)N1CCN(c2nc(-c3cccc(C)c3)nc(C)c2Cc2ccccc2)CC1	6	8
38	CC(=O)OC(C(=O)N1CCc2ccccc2C1c1ccccc1F)c1ccccc1 (stereo not drawn)	10	1
39	CCC1(C)Cc2c(C#N)c(N)n(C)c(=S)c2CO1 (stereo not drawn)	6	4
40	Cc1ccc(C(=O)Nc2ccc(C(F)(F)F)n(C)c2=O)cc1	-4	-4
41	CC1(C(=O)NCc2cccc(C(F)(F)F)c2)CCN1Cc1ccc2ccccc2c1 (stereo not drawn)	0	-4
42	N#CCCN(CCC#N)S(=O)(=O)c1ccc(N)cc1	-2	-2
43	Cc1ccc(C)c(CN(Cc2nc(C(=O)NC3CC3)co2)C(C)c2ccccc2)c1 (stereo not drawn)	8	15
44	CCOC(=O)C1=C(O)/C(=C\c2ccc([N+](=O)[O-])c(O)c2)SC1=Nc1ccc(OC)cc1OC	-4	3
45	Cc1ccc2nc(N(Cc3ccccn3)C(=O)c3ccc(S(C)(=O)=O)cc3)sc2c1	-2	-5
46	COc1ccccc1C1c2cccn2CCCN1Cc1cccc(OC)c1O (stereo not drawn)	-6	25
47	CCCSc1ncc(-c2nccn2-c2ccc3n[nH]nc3c2)cn1	14	11
48	COc1ccc(OCc2cc(C(=O)NCC3CCOC3)n[nH]2)c(Cl)c1 (stereo not drawn)	-1	2
49	N#CC1C(=N)OC2=C(C(=O)CC(c3ccccc3)C2)C1c1ccc(F)cc1 (stereo not drawn)	-14	-23
50	Cc1cn(CCNc2nccc(C3CCCC3)n2)nn1	-3	-7
51	COc1cccc(OC)c1C(=O)N1CCC2(CC1)NC(=O)c1cc(Cl)ccc1N2	-2	5
52	CC(c1ccccc1)n1c(C(=O)NCc2ccco2)cc2ccsc21 (stereo not drawn)	19	13
53	CN1CCN(S(=O)(=O)c2cc(Br)ccc2Br)CC1	2	0
54	O=C(Nc1cc(Oc2ccc(Cl)cc2C2CCCCC2)cc([N+](=O)[O-])c1)c1cnn2c(C(F)(F)F)cc(-c3cccs3)nc12	14	20
55	Cn1nnc2c(=O)n(C/C=C/c3ccccc3)cnc21	2	14
56	O=c1cnc2ccccc2n1CC(O)COCc1ccccc1F (stereo not drawn)	8	5
57	Cc1oc(-c2cccc(Cl)c2)nc1CN(C)CC1(CO)CCOCC1	4	2
58	CC1=C(C(=O)OCc2ccccc2)C(c2ccccc2I)NC(=O)N1C (stereo not drawn)	-2	-5
59	COc1ccc(NC(=O)c2ccc3c(c2)CCCC3)cn1	-1	-4
60	Cc1ccc(-c2cc(N)ccn2)c2cccnc12	-1	-6

# Other compounds follow.
no.	structure	NPYLR7 agonist	NPYLR7 agonist max-min
61	COCCN1C(=O)COCc2ccc(-c3cnc4ccccc4c3)cc21	3	2
62	COC(=O)CSc1nc(N)c(C#N)c(-c2ccccc2)c1C#N	-3	-8
63	CC1(C(=O)NS(=O)(=O)c2ccc(Cl)cc2)CCN1C(=O)Cc1ccccc1 (stereo not drawn)	1	-2
64	O=C(c1ccc2[nH]ccc2c1)N1CCCC(Nc2ccccc2)C1 (stereo not drawn)	4	0
65	CCc1ccc(C(COC)NS(=O)(=O)c2ccccc2)o1 (stereo not drawn)	1	-1
66	O=C(Nc1ccc(-n2nc(OCc3ccc(F)cc3)nc2-c2ccc(F)cc2)cc1)c1ccccc1F	10	16
67	FC(F)(F)c1ccc(N2CCN(C(=S)NC3CC3)CC2)nc1	8	4
68	Cc1ccc(-n2nnc3c(N4CCN(C(=O)c5ccccc5SC(F)F)CC4)ncnc32)cc1	-3	-13
69	N#Cc1ccccc1S(=O)(=O)Oc1ccccc1Br	9	2
70	O=C(O)c1cc(=O)c2cc(F)ccc2o1	-1	-1
71	O=C(CCc1ccsc1)Nc1ccnn1Cc1cccs1	9	7
72	O=C(Cc1ccc(S(=O)(=O)N2CCOCC2)s1)Nc1ccc(Cl)c(C(F)(F)F)c1	0	0
73	O=C(CCCN1C(=O)c2ccc(Br)cc2C1=O)Nc1nncs1	8	4
74	O=S(=O)(NC1CCCCCCC1)c1ccccc1F	-1	-1
75	Cc1cccc(NC(=O)CN(C)C(=O)CC2Sc3ccc(C(F)(F)F)cc3NC2=O)c1C (stereo not drawn)	10	14
76	C=CCN1CCN(c2nc3c(c(=O)[nH]c(=O)n3C)n2Cc2cc(C)ccc2C)CC1	5	27
77	CCc1nc(C2CC(=O)Nc3[nH]ncc32)c(C)[nH]1 (stereo not drawn)	2	0
78	Cc1ccsc1-c1ccc(C(C)N2CCOCC2)cc1 (stereo not drawn)	-3	5
79	CC(C)(Oc1ccc(Cl)cc1)C(=O)N1CCN(c2ncnc3c2nnn3-c2cccc(F)c2)CC1	4	-3
80	NC(=O)c1cc2c(nc1N1C[C@@H]3[C@H](C1)[C@H]1CC[C@@H]3O1)CCC2	3	0
81	COc1cc(F)cc(F)c1S(=O)(=O)Nc1cc(Cl)ccc1N1CCN(C)CC1	3	5
82	CCCc1ccc(S(=O)(=O)Nc2c(OC(=O)N(CC)CC)ccc3c2ccn3Cc2cccc(C)c2)cc1	-3	-10
83	CC(C)CCNCc1cccn1C	42	34
84	CCc1nc2ccc(C(=O)NCCN3CCOCC3)cn2c1N(CCC(C)C)CCN(C)C	-5	-13
85	O=C(Nc1ccc(Oc2ccccc2)cc1)N1CC(=O)N2CCc3cc(F)ccc3C2C1 (stereo not drawn)	4	3
86	CNS(=O)(=O)c1ccc(C)c(C(=O)NCCc2cccnc2)c1	-3	-4
87	CCC(=O)Nc1cccc(C(=O)N2C[C@H](OC(C)C)[C@@H](O)C2)c1	3	23
88	CCn1ccc2cc(CN3CCC4(CCNC(=O)CC4)CC3)ccc21	-19	-17
89	CCC1CN(C(=O)Cn2cc(C)c(=O)[nH]c2=O)CCN1 (stereo not drawn)	4	2
90	CCn1c(SCC(=O)c2ccccc2)nc2c(c1=O)SCC2	-2	-3

# A few values from the results shown.
# O=C(O)c1cc(=O)c2cc(F)ccc2o1 in NPYLR7 agonist max-min shows -1
# CCn1ccc2cc(CN3CCC4(CCNC(=O)CC4)CC3)ccc21 in NPYLR7 agonist max-min shows -17
# CCCc1ccc(S(=O)(=O)Nc2c(OC(=O)N(CC)CC)ccc3c2ccn3Cc2cccc(C)c2)cc1 in NPYLR7 agonist max-min shows -10
# CC1(C(=O)NS(=O)(=O)c2ccc(Cl)cc2)CCN1C(=O)Cc1ccccc1 (stereo not drawn) in NPYLR7 agonist shows 1
# COCCN1C(=O)COCc2ccc(-c3cnc4ccccc4c3)cc21 in NPYLR7 agonist max-min shows 2
# N#Cc1ccccc1S(=O)(=O)Oc1ccccc1Br in NPYLR7 agonist max-min shows 2
# CC(C)(Oc1ccc(Cl)cc1)C(=O)N1CCN(c2ncnc3c2nnn3-c2cccc(F)c2)CC1 in NPYLR7 agonist max-min shows -3

# (listing goes on)
no.	structure	NPYLR7 agonist	NPYLR7 agonist max-min
91	O=C(NCCSC1=Nc2ccccc2CS1)OCC(F)(F)F	0	-9
92	COc1nonc1NC(=O)C(F)(OC)C(F)(F)F (stereo not drawn)	-6	-8
93	O=C(Cn1cnc2c(nnn2Cc2ccccc2)c1=O)NCc1ccc2c(c1)OCO2	9	7
94	CN(C)CCCN(C(=O)c1ccc(Cl)s1)c1nc2c(F)cccc2s1	3	1
95	CCOC(=O)c1c(C)[nH]c(C(=O)CN2CCN(c3ccccc3)CC2)c1C	8	4
96	CCCCCCc1cc2cc(-c3csc(NC(C)=O)n3)c(=O)oc2cc1O	8	2
97	O=C(NNC(=O)C12CC3CC(CC(C3)C1)C2)C1CCCCC1C(F)(F)F (stereo not drawn)	-1	-1
98	CCn1nnnc1SCC(=O)Nc1ccccc1F	3	-2
99	CC(C)C/C=C/C=C\C(O)=N[C@@H](CC(=N)O)C(O)=N[C@@H]1C(O)=N[C@H](c2ccc(O)cc2)C(O)=N[C@H](CCCN)C(O)=N[C@H]([C@H](C)O)C(O)=N[C@@H](c2ccc(O)cc2)C(O)=N[C@H](c2ccc(O)cc2)C(O)=N[C@@H]([C@H](C)O)C(O)=N[C@@H](Cc2ccccc2)C(O)=N[C@H](CCCN)C(O)=N[C@@H](c2ccc(O[C@@H]3O[C@H](CO)[C@H](O)[C@@H](O)[C@@H]3O[C@@H]3O[C@H](CO)[C@@H](O)[C@H](O)[C@H]3O)cc2)C(O)=NC(C(C)O)C(O)=N[C@@H](c2ccc(O)cc2)C(O)=NCC(O)=N[C@@H](CC(C)C)C(O)=N[C@H](C)C(O)=N[C@@H](c2ccc(O)c(Cl)c2)C(=O)O[C@@H]1C(=N)O (stereo partly drawn)	0	-1
100	CCn1c(=O)c2c(nc3n(C(C)C)c(C)cn23)n(C)c1=O	4	0
101	Cc1ccccc1N(C(C)C(=O)O)S(C)(=O)=O (stereo not drawn)	-9	-15
102	CCc1ccc(C(=O)N2CCc3ncn4nc(-c5ccc(C)cc5)nc4c3C2)cc1	3	0
103	COc1cc2nc(-c3ccc(C)o3)cc(C(=O)NCc3cc(F)cc(F)c3)c2cc1OC	23	28
104	COC(=O)CCCNC(=O)[C@@H]1C[C@@H](NC(=O)Nc2cccc(F)c2)CCN1S(=O)(=O)c1ccc(OC)cc1	-10	-15
105	CCCN(CCC)C(=O)c1sc2nc(-c3cccc([N+](=O)[O-])c3)cn2c1C	2	-2

# 5 structures out of the list, sorted by molecular weight, largest number first.
no.	structure	NPYLR7 agonist	NPYLR7 agonist max-min
79	CC(C)(Oc1ccc(Cl)cc1)C(=O)N1CCN(c2ncnc3c2nnn3-c2cccc(F)c2)CC1	4	-3
44	CCOC(=O)C1=C(O)/C(=C\c2ccc([N+](=O)[O-])c(O)c2)SC1=Nc1ccc(OC)cc1OC	-4	3
58	CC1=C(C(=O)OCc2ccccc2)C(c2ccccc2I)NC(=O)N1C (stereo not drawn)	-2	-5
29	CS(=O)(=O)Oc1ccccc1CN(Cc1ccc(F)cc1)C(=O)C1CCC1	8	18
28	Nc1ccnc(N2CCC(CO)(Cc3ccccc3Cl)CC2)n1	31	22

# Source: PubChem
